Assay outcomes as filed in PubChem BioAssay.
D2 PAM: Beta-Arrestin HTS for Positive Allosteric Modulators of the Human D2 Dopamine Receptor: Potentiators. D(2) dopamine receptor (Homo sapiens), P14416. DiscoveRx D2 beta-arrestin cells, luminescence, 90 min; 100% = 57 uM dopamine signal. potentiation, % (concentration not given with the values). 0.23% of 360,000 active. AID 624464, 2012; active = potentiation of 50% or more; inconclusive = 30% to 50%; inactive = 30% or less;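 also: compound concentration not given in the record; tested on top of an EC20 dose of dopamine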
Target sequence (P14416 whole entry, looked up): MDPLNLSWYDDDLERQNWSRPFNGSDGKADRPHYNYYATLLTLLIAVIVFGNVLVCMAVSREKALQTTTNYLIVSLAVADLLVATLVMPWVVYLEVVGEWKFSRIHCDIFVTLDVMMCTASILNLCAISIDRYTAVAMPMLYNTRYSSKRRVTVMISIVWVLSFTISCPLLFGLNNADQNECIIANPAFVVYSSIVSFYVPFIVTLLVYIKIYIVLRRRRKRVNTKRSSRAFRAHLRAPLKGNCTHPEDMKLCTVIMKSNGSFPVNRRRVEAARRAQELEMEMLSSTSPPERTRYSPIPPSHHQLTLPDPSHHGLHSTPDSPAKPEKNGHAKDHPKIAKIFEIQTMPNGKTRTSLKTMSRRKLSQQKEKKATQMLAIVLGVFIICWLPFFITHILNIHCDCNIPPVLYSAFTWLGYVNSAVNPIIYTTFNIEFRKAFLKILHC
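PathHunter D2 cells, attached overnight at 37 deg C, received compound in DMSO plus dopamine at EC20 (50 nM final) for 90 min at 37 deg C. Beta-arrestin recruitment was read as luminescence after 1 h with detection reagent at ambient temperature.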
PINK1 modulator: A Quantitative High throughput Screen to Identify Chemical Modulators of PINK1 Expression. PINK1 immunofluorescence, high-content cytometry, 24 h. Potency, µM (doses to about 76.6 µM), without a hit: at the highest dose activation (PINK1 increase), actives largely listed as activators. 0.2% of 410,000 active. AID 624263, 2012; active = well fitted activation curve with a large enough effect; inconclusive = small, poorly fitted or top-dose-only effect; inactive = flat fitted curve, though single readings scatter; cell line not stated here;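 also: potency is read from the fitted curve at half-maximal effect; % of control where 0% means no effect; nearly all actives have a fitted effect of over 65% in size; a mitochondrial uncoupler was the plate control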
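Fluorescence from anti-PINK1 antibody, together with nuclear and cell stains, was scanned on a laser-scanning cytometer. Before staining, stable-line cells were incubated 24 hours with compounds at 5 concentrations; primary antibody 12 h at 10 degrees C.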
Six1-Eya2 blk: qHTS Assay for Inhibitors of the Six1/Eya2 Interaction; AlphaScreen GST-Six1/His-Eya2 binding, biochemical; stronger effect = lower value; control for the full effect not named in the record; activity change, % (test concentration not listed); 0.56% of 360,000 active; Homeobox protein SIX1 (Homo sapiens) + Protein phosphatase EYA2 (Homo sapiens), …; in the data active = activity change below about -65%; inconclusive = about -30% to -65%; inactive = above about -30%; also: % is scaled to controls: 0 for no effect and ±100 for the full control effect; compound concentration not given in the record
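GST-Six1 + His-Eya2 (5X stock: 250/500 nM); Tris pH 8.0, 300 mM NaCl, 0.05% BSA, 0.02% Tween 20; GSH donor/Ni acceptor beads; 1 h 37 °C dark; AlphaScreen readout.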
CtBP-E1A inh: qHTS Assay for Inhibitors of the CtBP/E1A Interaction. CtBP / adenovirus E1A interaction (AlphaScreen). AlphaScreen GST-E1A/His-CtBP binding, 1536-well; stronger effect = lower value; control for the full effect not named in the record. activity change, % (concentration not given with the values). 0.49% of 340,000 active. AID 651724, 2012; in the data active means activity change below about -65%; inconclusive means about -30% to -65%; inactive means above about -30%; also: % is scaled to controls: 0 for no effect and ±100 for the full control effect
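Steps: dispense buffer (Tris pH 8.0, NaCl 300 mM, TCEP 1 mM, BSA, Tween 20); add 5X protein mix (GST-E1A, His-CtBP, 125 nM each); pin 23 nL compound; 2 h at 37 °C, dark; add 5X beads (50 ug/mL); 1 h; read.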
D2 ag: Beta-Arrestin HTS for Positive Allosteric Modulators of the Human D2 Dopamine Receptor: Agonists | activation, % (no concentration beside the values) | D(2) dopamine receptor (Homo sapiens), P14416 | AID 624465, 2012 | 0.084% of 360,000 active | DiscoveRx PathHunter D2 beta-arrestin, luminescence, 90 min; 100% = 57 uM dopamine signal; in the data active = activation above about 40%; inconclusive = about 15% to 40%; inactive = below about 15%; also: compound concentration not given in the record; the text of the record calls up to 30% inactive
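DiscoveRx PathHunter D2 beta-arrestin cells (2,100/well) attached overnight, then compound-stimulated 90 min at 37 C in HBSS/10 mM HEPES/0.1% Tween-20 buffer; beta-galactosidase complementation read by luminescence after 1 h at ambient temperature. Dopamine 57 uM final (EC100) as control.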
TRPML1 agonist: qHTS for Agonists of the Human Mucolipin Transient Receptor Potential 1 (TRPML1) | 0.12% of 410,000 active | TRPML1-expressing cells, Ca2+ dye fluorescence, FDSS; host cell line not named in the record; reference of the full effect not given here | Mucolipin-1 (Homo sapiens), Q9GZU1 | activation, % (concentration not given with the values) | AID 624414, 2012; in the data active = activation above about 50%; inconclusive = about 30% to 50%; inactive = below about 30%; also: 0% is about no effect; the text of the record puts the active cut at 80%
Target sequence (Q9GZU1 whole entry, looked up): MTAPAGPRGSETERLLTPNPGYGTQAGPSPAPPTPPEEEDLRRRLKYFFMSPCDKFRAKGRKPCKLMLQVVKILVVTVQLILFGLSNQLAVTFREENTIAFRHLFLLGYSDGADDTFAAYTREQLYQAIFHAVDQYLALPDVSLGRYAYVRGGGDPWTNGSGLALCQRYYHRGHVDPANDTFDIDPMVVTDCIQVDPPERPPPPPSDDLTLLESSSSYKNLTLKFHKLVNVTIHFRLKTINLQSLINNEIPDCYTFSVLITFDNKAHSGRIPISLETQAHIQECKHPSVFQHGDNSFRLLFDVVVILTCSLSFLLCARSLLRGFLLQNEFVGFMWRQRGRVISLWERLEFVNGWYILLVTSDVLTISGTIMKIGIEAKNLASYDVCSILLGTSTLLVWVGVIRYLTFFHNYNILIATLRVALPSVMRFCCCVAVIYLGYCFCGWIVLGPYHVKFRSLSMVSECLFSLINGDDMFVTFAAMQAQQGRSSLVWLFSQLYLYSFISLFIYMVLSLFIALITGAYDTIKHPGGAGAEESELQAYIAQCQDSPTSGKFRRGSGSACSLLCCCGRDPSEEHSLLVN
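TRPML1-DL cells, Tet-induced overnight (~16 h, 37 degrees C), loaded 45-90 min at room temperature with Ca8 no-wash calcium dye plus quencher. FDSS fluorescence: 10 s baseline, compound pin-transfer, 110 s agonist read, then EC80 54-4 (4uM final) and 110 s antagonist read.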
The depositor's hits bear a star; ? = inconclusive; · = no result given; [ ] = remark or other dose.

SMILES	D2 PAM	PINK1 modulator	Six1-Eya2 blk	CtBP-E1A inh	D2 ag	TRPML1 agonist
Cc1c(C(=O)NCCN(C)C)oc2ccc(S(=O)(=O)N3CCCC3)cc12	-18	2.2%	-2	12	-4.9	-0.3
CCOc1ccc(NC(=O)CCc2c(C)noc2C)cc1OC	-11	0.3%	7	-2	-6.1	-0.2
Cc1ccc(NCc2cccnc2)c(Br)c1	-5	2.1%	5	-5	-1.2	0.4
CCOC(=O)NNC(=O)NCCCCCCNC(=O)NNC(=O)OCC	0	-0.5%	0	·	-2.6	0.5
CN1CCN(CC(=O)Nc2ccccc2C(F)(F)F)CC1	-2	0.0%	5	7	3.0	0.4
CCOC(=O)CSc1ccc2nnc(-c3ccccc3)n2n1	3	1.1%	-20	-9	1.4	-1.0
CCCCc1nc2ccccc2[nH]1	-3	1.1%	7	-2	1.5	0.5
CC(=O)NC(CC(=O)NCC(=O)Nc1ccc(F)c(F)c1)c1ccccc1 (configuration not stated)	-9	3.9%	2	4	-3.3	0.5
O=C(CSc1nc2ccccc2s1)NCc1ccc2c(c1)OCO2	-6	2.1%	6	0	-6.2	-0.3
CCCNS(=O)(=O)c1ccc(CCC(=O)NCc2ccc3c(c2)OCO3)cc1	-9	0.4%	-4	1	-3.1	-0.5
Cn1c(SCC(=O)N2CCOCC2)nc2c(c1=O)SCC2	-2	4.2%	1	1	-3.3	0.3
CC(CS(=O)(=O)c1ccccc1[N+](=O)[O-])N1CCOCC1 (configuration not stated)	0	-2.0%	1	2	-4.4	3.3
N/C(=N\S(=O)(=O)c1cc(C(F)(F)F)cc(C(F)(F)F)c1)c1cccs1	4	5.4%	5	·	3.2	4.8
COCCNC(=O)C1CCN(C(=O)c2cc3sccc3n2Cc2ccc(F)cc2)CC1	1	-0.5%	6	1	-1.7	0.0
CN(C(=O)c1ccncc1)C1CC(C)(C)N(O)C(C)(C)C1	11	2.5%	4	4	3.1	-0.2
CCCCn1nc(NC(=O)c2cccs2)c2cc3cc(OC)ccc3nc21	24	1.4%	53	51	2.5	0.1
COc1ccccc1NS(=O)(=O)c1ccc(C(=O)NCCCN2CCOCC2)cc1	-3	-3.3%	2	-25	2.7	1.5
CCOc1ccccc1N1CCN(C(=O)CNC(=O)c2ccc(OC)c(OC)c2)CC1	0	0.8%	19	0	0.1	0.7
Cc1csc(N(C(=O)c2ccc(S(=O)(=O)N(C)C)cc2)c2ccccc2)n1	-14	?	-4	0	-1.5	0.2
Cc1ccc(CSc2nnnn2C)cc1	-15	2.4%	14	11	-2.0	-0.3
Cc1cc(=O)n2c(n1)NC(Nc1cccc(C)c1C)=NC2c1ccc(F)cc1 (configuration not stated)	-16	3.4%	3	5	-8.3	-0.1
Cc1nc2ccccn2c1C(=O)N/N=C/c1cc(C)n(-c2ccc(Br)cc2)c1C	-10	-8.9%[38.3 µM]	-20	?	-0.8	1.3
CCn1c2c(c3cc(C(=O)O)ccc31)CCCC2=O	4	-0.4%	-2	11	-1.7	-0.7
COC(=O)c1ccccc1NC(=O)NCc1c(C)nn(C)c1C	-3	0.6%	6	8	1.1	-0.3
O=c1[nH]c(/C(Cl)=C/c2c(F)cccc2Cl)nc2cc(Cl)ccc12	2	8.2%	?	12	-2.5	-0.9

3 consecutive entries out of the list so far, for reference:
SMILES	D2 PAM	PINK1 modulator	Six1-Eya2 blk	CtBP-E1A inh	D2 ag	TRPML1 agonist
CCn1c2c(c3cc(C(=O)O)ccc31)CCCC2=O	4	-0.4%	-2	11	-1.7	-0.7
COC(=O)c1ccccc1NC(=O)NCc1c(C)nn(C)c1C	-3	0.6%	6	8	1.1	-0.3
O=c1[nH]c(/C(Cl)=C/c2c(F)cccc2Cl)nc2cc(Cl)ccc12	2	8.2%	?	12	-2.5	-0.9

The main list resumes with the four entries that preceded the break.
SMILES	D2 PAM	PINK1 modulator	Six1-Eya2 blk	CtBP-E1A inh	D2 ag	TRPML1 agonist
Cc1nc2ccccn2c1C(=O)N/N=C/c1cc(C)n(-c2ccc(Br)cc2)c1C	-10	-8.9%[38.3 µM]	-20	?	-0.8	1.3
CCn1c2c(c3cc(C(=O)O)ccc31)CCCC2=O	4	-0.4%	-2	11	-1.7	-0.7
COC(=O)c1ccccc1NC(=O)NCc1c(C)nn(C)c1C	-3	0.6%	6	8	1.1	-0.3
O=c1[nH]c(/C(Cl)=C/c2c(F)cccc2Cl)nc2cc(Cl)ccc12	2	8.2%	?	12	-2.5	-0.9
CN(c1ccccc1)S(=O)(=O)c1cccc(NC(=O)COc2ccccc2)c1	-11	2.6%	-6	·	0.1	-1.8
Cc1ccc(Oc2cc(NC(=O)CCCn3nc([N+](=O)[O-])cc3C)cc([N+](=O)[O-])c2)cc1	-22	?	-14	?	-1.6	1.7
CCC(=O)Nc1c(-c2ccc(Cl)cc2)c(=O)c2ccccc2n1C	-8	-2.3%	-9	-7	9.8	2.4
COCCn1c(SCC(=O)N2CCC(C)CC2)nc2c([nH]c3ccccc32)c1=O	7	2.8%	-3	1	-0.1	0.6
COc1ccc(NC(=O)CN2CCN(CC(=O)Nc3ccccc3Cl)CC2)cc1Cl	-1	2.4%	-1	-4	2.0	-0.2
CN(c1ccccc1)S(=O)(=O)c1cccc(NC(=O)CSc2nccc(=O)[nH]2)c1	7	1.9%	-18	-6	2.6	-0.1
COc1ccc(-c2nc(SC(CC(=O)NCCN3CCOCC3)c3cccs3)n[nH]2)cc1 (configuration not stated)	-5	1.6%	1	-3	1.7	1.3
O=C(Nc1nncs1)c1cccc(S(=O)(=O)N2CCCC2)c1	2	0.6%	0	0	0.2	1.0
c1ccc(-c2cc3nc(NCC4CC4)nc(NCC4CCCCC4)c3s2)cc1	-36	-0.2%	1	-7	41*	-0.2
COc1ccc(CCNC(=O)C(=O)NCc2cccs2)cc1OC	17	15%	3	·	-3.6	0.8
COc1ccccc1CNC(=O)C1CCN(S(=O)(=O)N2CC(C)CC(C)C2)CC1 (configuration not stated)	-24	-0.1%[38.3 µM]	-1	8	0.0	-0.1
CCN(CC)C(=O)[C@H]1CC(CC(=O)NCCCN(C)C)C(=O)N2CCc3c([nH]c4ccccc34)[C@]12C (some centres not stated)	·	-0.9%	-2	-1	0.2	-0.6
CS(=O)(=O)N(Cc1ccc(C(=O)NC2CCCCC2O)cc1)c1ccccc1 (configuration not stated)	3	1.1%	1	-3	-1.5	0.5
N#Cc1ccccc1S(=O)(=O)N1CCN(C(=O)[C@H](Cc2ccccc2)NC(=O)c2ccco2)CC1	-4	2.6%	10	-11	-3.4	-0.1
O=C1CCC([N+](=O)[O-])C(c2cc3c(cc2Br)OCO3)N1 (configuration not stated)	-9	-2.6%	6	3	-0.5	0.0
O=C(O)CSc1nnc(-c2ccc3c(c2)OCO3)n1-c1ccccc1	-1	3.7%	9	-5	-0.9	-0.1
OCC[C@@H]1C[C@H](O)[C@@H](O)[C@]2(OCc3cc(Cl)ccc32)O1	-7	1.2%	6	13	-3.5	-0.1
COc1cccc(NC(=O)c2cnc(SCC(=O)NCc3ccc4c(c3)OCO4)n(C)c2=O)c1	-17	-0.8%	3	3	-2.5	0.6
O=C(Nc1cccc(C(F)(F)F)c1)c1csc([C@@H]2C[C@H](O)[C@@H](CO)O2)n1	-8	1.7%	5	2	-3.7	0.1
OCCc1c[nH]c2cc(F)ccc12	-8	0.1%	-1	0	-2.1	-0.6
Fc1ccccc1N1CCN(CCCNc2ccc3nncn3n2)CC1	11	-1.7%	1	5	43*	-0.3
NC(=O)C[N+]1(CC#CC(O)(c2ccccc2)c2ccccc2)CCCC1	-2	1.0%	5	-5	-3.6	0.9
S=c1[nH]c2nc(Cl)c(Cl)nc2[nH]1	-20	-1.1%	-14	-17	-8.3	-0.4
C[C@H](N)C(=O)N1CCC(C(=O)N[C@@H](Cc2ccccc2)C(=O)Nc2ccc(F)cc2)CC1	-7	-0.9%	1	-2	-4.2	·
CC(C)(C)OC(=O)N1CCCC1C(=O)O (configuration not stated)	-6	4.5%[38.3 µM]	33	46	-2.8	-0.6
SMILES	D2 PAM	PINK1 modulator	Six1-Eya2 blk	CtBP-E1A inh	D2 ag	TRPML1 agonist
O=C(NCc1ccccc1)C1Nc2ccc(OC(F)(F)F)cc2C2C=CCC12 (configuration not stated)	-13	10%	-5	2	-0.5	-0.5
Cc1occc1C(=O)NNC(=O)c1ccccc1[N+](=O)[O-]	-4	-0.2%	-11	0	-3.0	0.0
COCCCNC(=O)CN1C(=O)/C(=C/c2ccccc2C)Sc2ccccc21	3	1.0%	1	-1	-3.3	0.8
O=C1C2CCCCN2C(=O)N1CCCN1CCN(c2cccc(C(F)(F)F)c2)CC1 (configuration not stated)	-7	1.4%	-4	4	-1.2	-1.0
C[C@H](NC(=O)c1[nH]cnc1C(=O)Nc1ccccc1)c1ccccc1	-2	11%	-4	0	-1.4	0.6
CCc1ccc(N2CC(C(=O)Nc3nnc(CC)s3)CC2=O)cc1 (configuration not stated)	-7	-0.4%	-1	2	-5.1	1.0
CCOC(=O)C(C)c1nn(C)c(=O)c2ccccc12 (configuration not stated)	6	1.6%	1	5	0.3	-0.4
COc1c2occc2c(OC)c2c(=O)cc(C(F)(F)F)oc12	4	2.1%	-4	4	-0.7	0.2
COCCNC(=O)C1CCCN(C(=O)Cc2ccc(F)cc2)CC1 (configuration not stated)	-6	-0.1%	2	2	-3.4	-0.1
COc1cc(/C=C/C(=O)OCC(=O)Nc2c(C)n(C)n(-c3ccccc3)c2=O)ccc1O	12	-1.1%	2	4	-2.1	-0.6
O=C1OC(c2ccc(F)cc2)=C/C1=C\c1ccc(O)cc1	-8	0.8%	-3	·	-12	·
CC(C)NC(=S)N1CCN(c2ncccn2)CC1	-7	?	3	25	-2.1	-0.2
CCCCCOc1ccc(/C=c2\sc3nc(=O)c(-c4ccccc4)nn3c2=O)cc1OC	-18	?	2	-13	-0.3	0.5
Cc1ccc(OCCCn2c(=O)oc3ccccc32)cc1	-22	2.3%	21	26	-1.0	2.6
Cc1ccc(S(=O)(=O)Cc2cc(F)c([N+](=O)[O-])cc2[N+](=O)[O-])cc1	5	-1.0%	4	0	5.2	7.7
CCOC(=O)c1ccc(CC(=O)c2ccc(O)cc2O)o1	-3	-0.7%	10	1	1.8	-0.5
CCCOc1ccc(C2C(C(=O)c3ccc(C)o3)=C(O)C(=O)N2Cc2ccco2)cc1 (configuration not stated)	2	3.8%	0	-1	1.5	1.8
CCC/C=C/c1ccc(CN2C(CC(C)C)C(=O)N(Cc3cn(CC4CCCCC4)nn3)CCS2(=O)=O)cc1 (configuration not stated)	4	5.4%	-1	2	-9.3	-0.2
